# Assay outcomes from PubChem.
# AID504770: E. coli YBA685 growth inhibition, screen for V. cholerae RctB inhibitors; E. coli YBA685 rctB-dependent plasmid, OD600 growth, 3 h; hits give low values; z-score (concentration not given with the values); 0.27% of 130,000 active; AID 504770;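 active = z-score under -2 on both plates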;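 note: wells of about 30 µL received 100 nL stock; score is relative to mean and SD of the test wells; the first replicate is given; strong numbers were not always called active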
# CapD inh: inhibitors of Bacillus anthracis CapD enzyme; AID 492967; z-score (concentration not given with the values); purified CapD enzyme, fluorescence intensity read-out; hits give low values; some hits fall short of the stated cut; 0.23% of 140,000 active;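 active = z-score under -4 in either of two replicates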;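 note: stock transfer was 100 nL into about 40 µL; score is relative to mean and spread of the plate; one replicate is shown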
# Numbers without * were called inactive; nt = no result given.
# Results follow in this order: AID504770, CapD inh
COC(=O)CC1C(=O)NC(C)=C1C(=O)OC (centres undefined)
→ nt, -0.96
Nc1c(NC2CCCCC2)c2ccccc2oc1=O
→ 0.55, -1.6
CN1CCN(CC(O)COC(C(F)(F)F)C(F)(F)F)CC1 (centres undefined)
→ -0.3, nt
CC(=O)C1=NN(c2ccccc2)C(c2c[nH]c3ccccc23)N1c1ccc(C)cc1 (centres undefined)
→ nt, -0.42
O=S(=O)(c1cccc2ccccc12)n1nnc2cc(Cl)ccc21
→ nt, -0.06
Cc1nn(CC(=O)O)c2c1C1C(C2)C1(C)C (centres undefined)
→ -0.5, nt
C=C(C)C(=O)Nc1cc(NC(=O)C(=C)C)cc(C(=O)O)c1
→ -0.8, 0.12
O=S1(=O)CCC(N(S(=O)(=O)c2ccc(F)cc2)S(=O)(=O)c2ccc(Cl)cc2)C1 (centres undefined)
→ -0.5, -0.15
c1ccc(CSc2nnc3ccc(-c4ccc5c(c4)OCO5)nn23)nc1
→ 0.25, nt
COc1ccc(NC(=O)Nc2ccc(OC)c(OC3CCCC3)c2)cc1OC1CCCC1
→ 0.75, 0.25
Cc1ccc(CSC2=NCCCN2)cc1C
→ 1.3, 0.98
CCCc1nc2ccccc2c(C(=O)OCC(=O)NC2CC2)c1CC
→ 0.2, 0.26
CCOC(=O)c1cc(NC(=O)c2ccc(OC)cc2)c(=O)oc1-c1ccccc1
→ nt, -0.29
O=S(=O)(N/N=C/c1ccsc1)c1ccc(Cl)s1
→ 1.8, 0.43
CC(C)NC(=O)c1ccccc1CCc1ccccc1
→ 0.4, -0.17
Cc1ccc(Sc2ccc(C(=O)NC3CCCCC3)cc2[N+](=O)[O-])cc1
→ nt, -0.17
CC(C)NC(=O)c1ccc(-n2cc(-c3ccnc4ccccc34)cn2)cc1
→ nt, 16
O=c1/c(=C/c2ccccc2)sc2nc3cc(Br)cnc3n12
→ nt, 0.16
COC(=O)c1sc(N2CCCC2)c(S(=O)(=O)C(C)C)c1N
→ 1.2, -0.37
CC1=C(C(=O)N2CCCCC2)C(c2ccc(N(C)C)cc2)C2=C(CCCC2=O)N1 (centres undefined)
→ 0.2, nt
COc1ccc(S(=O)(=O)c2cn(C)c3ccccc3c2=O)cc1
→ -0.05, -0.3
CC(C)NC(=O)C1CC(=O)N(Cc2ccccc2)C1 (centres undefined)
→ 0.85, nt
O=C(c1ccc(Cl)cc1)N1CCC(C(F)(F)F)CC1
→ 0.3, -0.26
CCOC(=O)N1CCC(NC(=O)CSc2cc(C)nc3c(-c4ccccc4OC)c(C)nn23)CC1
→ 0.05, -0.15
CCOC(=O)CSc1nc2cc(C(=O)Nc3ccc(OC)c(OC)c3)ccc2c(=O)n1CCc1ccccc1
→ nt, 0.15
O=C(c1ccccc1)N1CCN(S(=O)(=O)c2cc(Cl)ccc2Cl)CC1
→ nt, -0.16
CC(=O)NCCNS(=O)(=O)c1cc(Cl)sc1Cl
→ nt, 0.32
O=C(O)C1CCN(C(=O)c2ccccc2C(=O)N2CCC(C(=O)O)CC2)CC1
→ -0.6, -0.18
COc1ccc(NC(=O)c2ccc(O)cc2)cc1
→ 0.55, -1
CC(C)(C)NC(=O)N1CCN(c2cc(C(F)(F)F)ccn2)CC1
→ 1.1, 6.7

# The list goes on; it opens with the 2 that closed the last part.
# Results follow in this order: AID504770, CapD inh
COc1ccc(NC(=O)c2ccc(O)cc2)cc1
→ 0.55, -1
CC(C)(C)NC(=O)N1CCN(c2cc(C(F)(F)F)ccn2)CC1
→ 1.1, 6.7
O=C1CN(C(=O)c2ccc3c(c2)OCO3)c2ccccc2N1
→ -0.8, nt
CCOC(=O)C1CCCN(S(=O)(=O)c2ccc(-c3ccc(=O)[nH]n3)s2)C1 (centres undefined)
→ 0.05, 1.2
O=C(c1ccc2nc(N3CCOCC3)sc2c1)N1CCCC1
→ -0.6, 0.2
Cc1c(C(=O)N2CCC3(CC2)OCCO3)sc2nc(-c3ccccc3)cn12
→ 1.2, 0.15
Oc1c(C(c2ccccc2Cl)N2CCCCC2)ccc2cccnc12 (centres undefined)
→ 0, 61
O=C(c1ccccc1O)N1N=C(C(F)(F)F)CC1(O)c1cccnc1 (centres undefined)
→ nt, -0.32
C=C1COC(=O)N1Cc1ccccc1Cl
→ -1.5, 0.015
O=C(N/N=C/c1ccc(OCc2ccccc2)c(OCc2ccccc2)c1)C1CC1c1ccccc1 (centres undefined)
→ nt, 0.085
CNC(=S)N1CCc2ccccc2C1
→ -1.3, -0.33
COc1cccc2cc(-c3nc(-c4ccc(Br)cc4)cs3)c(=O)oc12
→ nt, 0.22
CCCC(=O)N(c1cccc(Cl)c1)C1C=CS(=O)(=O)C1 (centres undefined)
→ 0, -0.29
Cc1ccc(OCCn2cc(/C=C3/C(=O)Nc4cc(Cl)ccc43)c3ccccc32)cc1C
→ -0.5, 0.055
Cc1cc(C(=O)N(CCC#N)Cc2cccs2)no1
→ -0.85, -0.74
Cn1ccnc1SCC(=O)Nc1ccc2nc(SCC(=O)Nc3ccc(F)cc3)sc2c1
→ nt, -0.32
Nc1n[nH]c(CNC(=O)c2ccccc2)n1
→ 1.9, 0.09
COc1cc(OC)c(NC(=O)C2c3ccccc3C(=O)N(C)C2c2c[nH]c3ccccc23)cc1Cl (centres undefined)
→ -0.85, -0.015
Cn1nnc2c(N3CCCc4ccccc43)ncnc21
→ -0.05, nt
COc1cc(C=C2C(=O)N(C)C(=O)N(C)C2=O)ccc1OCCOc1ccc(C)cc1
→ nt, 0.07
CCN(CC)c1ccc(C(=O)OCC(=O)N2CCCC2)cc1
→ 0.25, -1.8
Cc1ccc(-n2cc(C(=O)c3ccc(N4CCN(C)CC4)cc3)nn2)cc1Cl
→ nt, 0.88
COC(=O)c1ccc(NC(=O)COC(=O)c2cc3ccccc3o2)cc1
→ -0.4, 0.19
O=S1(=O)C=C(Nc2ccccc2)CC1
→ -0.8, 0.2
O=C(NCCN1CCOCC1)c1ccc2c(c1)CCN2S(=O)(=O)c1ccc(Br)cc1
→ 0.45, -0.08
CC(C)(CC(=O)O)C(CCC(=O)O)C(=O)O (centres undefined)
→ nt, 0.1
O=C(COC(=O)c1cc[n+]([O-])cc1)Nc1ccc(Cl)c(C(F)(F)F)c1
→ -0.35, 0.58
Cc1cc(C)nc(NS(=O)(=O)c2ccc(NC(=O)Cn3cnc4ccccc4c3=O)cc2)n1
→ nt, -0.34
Nc1ccccc1C1C(=O)CSC1=O (centres undefined)
→ 9.4, 0.2
CNCc1c(C)nn(C2CCS(=O)(=O)C2)c1C (centres undefined)
→ 0.4, nt
CCOc1cccc(C(=O)N/N=C/c2ccc(OC(=O)OC(C)(C)C)c(OC)c2)c1
→ nt, 1.9
CCCN(CCC)C(=S)NC1CC2C=CC1C2 (centres undefined)
→ -0.6, -0.055
COc1ccc(C2=NN(C(=O)CCl)C(c3nc4ccccc4[nH]3)C2)cc1 (centres undefined)
→ nt, -0.17
C/C=C/c1c(F)c(F)c(Oc2ccc(OC)cc2)c(F)c1F
→ 0.95, -0.79
CC1CN(C(=O)CSc2ncnc3ccccc23)CC(C)O1 (centres undefined)
→ -0.6, nt
CN(C)c1ccc(C=Nc2nonc2-c2ccccc2)cc1
→ -0.7, 0.18
C/C=C/C(=O)OCc1cc(=O)oc2cc(O)ccc12
→ 0.2, nt
Cc1c(Cl)cccc1NC(=O)CSC1=C(C#N)C(c2cccs2)C2=C(CCCC2=O)N1 (centres undefined)
→ nt, 4.7
Cc1nn(Cc2ccccc2Cl)c2sc(C(=O)Nc3nccs3)cc12
→ -0.55, nt
Clc1cccc(-n2ncc3c(SCCN4CCCCC4)ncnc32)c1
→ -0.75, nt
Cc1cccn2c(=O)c(/C=C3\SC(=S)N(CC4CCCO4)C3=O)c(N3CCN(C)CC3)nc12 (centres undefined)
→ nt, -0.94
COCCCn1c(OC(=O)N(C)C)c(C)c(C)nc1=S
→ 1.6, -0.98
CCOc1cc(CNC2CCN(Cc3ccccc3)C2)ccc1OCC(=O)N(C)C (centres undefined)
→ -0.5, nt
Cc1cc(C)c2c(-n3cccc3)nn(Cc3ccc(C(=O)N4CCCC4)cc3)c2n1
→ 0.85, 12
COc1cc2c(cc1OC)C(COc1cc(C)cc(C)c1)N(C(=O)Cc1cccs1)CC2 (centres undefined)
→ 0.1, 17
COc1cc(/C=C2\SC(NC(C)=O)=NC2=O)cc(OC)c1OC(C)=O
→ nt, 0.39
CC(=O)OC(C)(C)C(=O)/C=C/c1ccccc1
→ -0.2, -0.66
CN(c1nc(-c2ccccc2)cs1)C1CCS(=O)(=O)C1 (centres undefined)
→ 1.6, 0.17
FC(F)(F)c1nc2ccccc2n2c(-c3c(Cl)cccc3Cl)nnc12
→ nt, 3.9
CN(C)c1ccc(C(=O)OCc2cc(=O)oc3cc(O)ccc23)cc1
→ -0.5, nt
CCCCN(CCCC)c1ncnc2c1sc1nc(N3CCOCC3)c3c(c12)CCCC3
→ nt, -0.42
Cc1ccc(C(=O)Nc2c3c(nn2-c2ccccc2)CSC3)cc1
→ 0.2, 0.42
Cc1cccc(C)c1NC(=O)CCN1CCCCC1
→ 1.1, 0.46
Cn1nnnc1SCC(=O)Nc1ccc2nc(SCc3ccccc3Cl)sc2c1
→ nt, -0.1
COc1ccc(C2/C(=C(\O)c3ccccc3)C(=O)C(=O)N2c2cccc(Cl)c2)cc1OC (centres undefined)
→ nt, -0.67
CCOC(=O)c1sc2nc(CC(=O)OC)nc(Nc3ccc(F)c(Cl)c3)c2c1C
→ nt, -0.78
O=C(C1CCN(S(=O)(=O)c2cccc3nsnc23)CC1)N1CCN(c2ccccc2Cl)CC1
→ -0.9, -0.27
N#Cc1c(-c2ccc(Cl)cc2)c2c([nH]c1=O)-c1ccccc1SC2
→ 0.35, 4.2
CC1CCCN(S(=O)(=O)c2cccc3c(S(=O)(=O)N4CCCC(C)C4C)cccc23)C1C (centres undefined)
→ -0.5, 46
COC(=O)CN1C(=O)c2ccc(C(=O)OC)cc2C1=O
→ -0.3, nt
O=C(C[n+]1ccccc1)c1ccc(Cl)cc1
→ nt, -0.47
FC(F)(F)C1(C(F)(F)F)N=C2C=CC=CN2C(c2ccccc2)=N1
→ 0.55, 0.09

# A run of entries from further up, for reference:
# Results follow in this order: AID504770, CapD inh
Cc1ccc(Sc2ccc(C(=O)NC3CCCCC3)cc2[N+](=O)[O-])cc1
→ nt, -0.17
CC(C)NC(=O)c1ccc(-n2cc(-c3ccnc4ccccc34)cn2)cc1
→ nt, 16
O=c1/c(=C/c2ccccc2)sc2nc3cc(Br)cnc3n12
→ nt, 0.16
COC(=O)c1sc(N2CCCC2)c(S(=O)(=O)C(C)C)c1N
→ 1.2, -0.37
CC1=C(C(=O)N2CCCCC2)C(c2ccc(N(C)C)cc2)C2=C(CCCC2=O)N1 (centres undefined)
→ 0.2, nt

# (next part)
# Results follow in this order: AID504770, CapD inh
Cn1c(=O)[nH]c2c(nc(-c3ccccc3)n2C)c1=O
→ 2.1, 66
Cc1cccc(NCc2c(C#N)c3ccccc3n2C)c1
→ -0.05, -0.11
Clc1ccc2nc(N3CCc4ccccc43)c3nncn3c2c1
→ -0.3, 0.39
O=C(c1cc(F)c(F)cc1Cl)N1CCN(c2ncccn2)CC1
→ -0.2, 4.8
O=C(OCCN1CCN(c2ccc([N+](=O)[O-])cc2)CC1)c1ccc(F)cc1
→ nt, -0.14
CCOC(=O)N1CCN(C(=O)OCCCCc2ccc([N+](=O)[O-])cc2)CC1
→ nt, -0.4
CC(=O)Nc1cccc(-c2nn3c(C)nnc3s2)c1
→ 0.2, 0.18
O=C(C1CCC1)N1CCN(c2cc(C(F)(F)F)nc3ccccc23)CC1
→ -0.05, 0.8
O=C(O)CO/N=C/c1ccccc1
→ -0.2, nt
CC(Nc1ncnc2ccccc12)c1ccccc1 (centres undefined)
→ -0.8, 2.4
COc1ccccc1[C@@H]1[C@@H](C(=O)c2ccccc2)N2c3ccc(Cl)cc3C=C[C@@H]2C1(C#N)C#N
→ nt, 0.005
CC(C(=O)NCc1ccc(F)cc1)n1sc2ccccc2c1=O (centres undefined)
→ -0.1, 0.26
Cc1cc(C)c2c(c1C(=O)O)CC(C)(C)C2=O
→ 0.15, 0.32
Fc1ccc2[nH]c3nc4ccccc4nc3c2c1
→ nt, 0.54
COc1cccc(C2C=C(Nc3ccc(F)cc3)C(=O)N2c2ccc(F)cc2)c1 (centres undefined)
→ nt, -0.29
COc1ccc(Oc2cccc(/C=N/NC(=O)c3cc(C4CC4)nc4ccccc34)c2)cc1
→ nt, 1.2
O=S1(=O)C=C(N2CCOCC2)CC1
→ -1.5, 0.01
CCn1ncc(C2=NOC(C(=O)N3CCN(c4ccccc4)CC3)C2)c1C (centres undefined)
→ 0.3, -0.1
COc1ccc(O)c(C2SCC(=O)N2Cc2ccccc2)c1 (centres undefined)
→ -1.2, -0.29
CCCc1ccc(S(=O)(=O)N2CCCC2COC)cc1 (centres undefined)
→ nt, 0.6
O=C1/C(=C/c2ccc(-c3ccccc3[N+](=O)[O-])o2)NC(=S)N1c1ccccc1
→ nt, -1.2
O=C(O)CN(Cc1ccccc1)S(=O)(=O)c1ccccc1
→ 0.6, nt
NC1=NC(=O)/C(=C/c2cc(Br)ccc2OCc2ccccc2)S1
→ nt, 0.96
Cc1ccc(C(C)(C)C)c(OCCC#N)c1
→ 0.45, nt
CSCCC(=O)Nc1ccc(Oc2cccc(C)c2)cc1
→ 1.2, nt
O=C(Nc1ccc(O)cc1)C1Cc2ccccc2CN1S(=O)(=O)c1cccs1 (centres undefined)
→ -0.6, -0.15
O=c1nccc(C(F)(F)C(F)(F)F)[nH]1
→ -0.4, nt
Cc1cc(OC(=O)c2ccccc2)n[nH]1
→ 0.9, nt
CCOc1ccccc1COC(=O)NCc1ccc(-c2csnn2)cc1
→ nt, 0.18
O=C(Nc1ccc(Cl)c(-c2nc3ncccc3o2)c1)c1ccc(-c2cccc([N+](=O)[O-])c2)o1
→ nt, 0.005
CCOC(=O)C1=C(C)NC(SCC(=O)O)=NC1c1ccccc1 (centres undefined)
→ -0.2, -0.99
Oc1ccc(Nc2nc(N3CCOCC3)c3ccccc3n2)cc1
→ -0.1, -0.51
CS(=O)c1sc(C(=O)OCc2ccccc2)c2c1C(=O)CC(C)(C)C2 (centres undefined)
→ -0.7, 0.015
